Screening data deposited in PubChem BioAssay by Broad Institute.
Tg IFNy HTS – T. gondii growth inhibition under IFN-gamma; activity change, negative = inhibition, %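 (about 20 µM by stock and volumes)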; hit rate 3.8% among 69,000; Toxoplasma gondii growth in IFN-gamma-treated host cells; active compounds read low; reference of the scale not given here;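 active means below -70%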;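 further: host cells are HeLa cells infected with Toxoplasma gondii; parasite growth read as luciferase light; one replicate is shown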
* marks the source's active call; other numbers are inactive results; i = inactive; & = joins results of further samples.

Preview:
SMILES	Tg IFNy HTS
CC1(C(=O)NCc2ccc(F)cc2F)CCN(C(=O)Cc2cccc(F)c2)CC1	9.2
Cc1cc(NCc2ccc3c(c2)OCO3)n2c(n1)nc1ccccc12	7.9
CC(C)c1nccc(-c2c(-c3ccccc3)ncn2C[C@H]2CCCN2)n1	-62.6
N[C@@H](COP(=O)(O)O)C(=O)O	4.6
O=C(NCc1ccco1)c1c(NC(=O)C2COc3ccccc3O2)sc2c1CCC2 (stereo not drawn)	393.1
CS(=O)(=O)N1CCOCC2(C1)CN(S(=O)(=O)C1CC1)CCO2 (stereo not drawn)	-45.9
CNc1cc(C(=O)NCCC2=CSC3=NCCCN23)ccn1	2.6
O=C(COC(=O)c1cc2ccccc2oc1=O)c1ccc(Br)cc1	16.4
Cc1ccc(CN2CCC3(CC2)CCN(C(=O)C2CC=CC2)C3)cc1	-2.9
Cc1ccc(-c2nc(-c3noc4ccc(C(=O)N5CCCO5)cc34)co2)cc1	28.9
Cc1cc(-c2cc(=O)[nH]c(-c3ccccn3)n2)no1	1.3
Cn1cc(C(=O)NCc2cn3c(n2)CN(Cc2ccoc2)CC3)cn1	4.0
CC(C)c1cc(C(=O)N(C)CC2OCCc3ccccc32)n2ncnc2n1 (stereo not drawn)	1.6
CCCn1cc(S(=O)(=O)NCC2CCC(c3ccc(C(N)=O)c(C)n3)CC2)c(C)n1 (stereo not drawn)	19.4
COc1cc(CN2C[C@H]3CC=CC[C@H]3C2)cc(OC)c1OC(C)C(=O)O (stereo partly drawn)	30.4
Cc1nc(CN2CC(OCc3ccncc3)CN(Cc3ccc4c(c3)OCCO4)CC2=O)cs1 (stereo not drawn)	-39.6
COCC(=O)NCc1cc(=O)n2c(n1)CN(c1ncccn1)CCC2	3.0
Cc1ccc(C2CCCN2C(=O)CC2CCN(C(=O)C(C)C)CC2)cc1C (stereo not drawn)	-6.7

Main list (from the top)
SMILES	Tg IFNy HTS
CC1(C(=O)NCc2ccc(F)cc2F)CCN(C(=O)Cc2cccc(F)c2)CC1	9.2
Cc1cc(NCc2ccc3c(c2)OCO3)n2c(n1)nc1ccccc12	7.9
CC(C)c1nccc(-c2c(-c3ccccc3)ncn2C[C@H]2CCCN2)n1	-62.6
N[C@@H](COP(=O)(O)O)C(=O)O	4.6
O=C(NCc1ccco1)c1c(NC(=O)C2COc3ccccc3O2)sc2c1CCC2 (stereo not drawn)	393.1
CS(=O)(=O)N1CCOCC2(C1)CN(S(=O)(=O)C1CC1)CCO2 (stereo not drawn)	-45.9
CNc1cc(C(=O)NCCC2=CSC3=NCCCN23)ccn1	2.6
O=C(COC(=O)c1cc2ccccc2oc1=O)c1ccc(Br)cc1	16.4
Cc1ccc(CN2CCC3(CC2)CCN(C(=O)C2CC=CC2)C3)cc1	-2.9
Cc1ccc(-c2nc(-c3noc4ccc(C(=O)N5CCCO5)cc34)co2)cc1	28.9
Cc1cc(-c2cc(=O)[nH]c(-c3ccccn3)n2)no1	1.3
Cn1cc(C(=O)NCc2cn3c(n2)CN(Cc2ccoc2)CC3)cn1	4.0
CC(C)c1cc(C(=O)N(C)CC2OCCc3ccccc32)n2ncnc2n1 (stereo not drawn)	1.6
CCCn1cc(S(=O)(=O)NCC2CCC(c3ccc(C(N)=O)c(C)n3)CC2)c(C)n1 (stereo not drawn)	19.4
COc1cc(CN2C[C@H]3CC=CC[C@H]3C2)cc(OC)c1OC(C)C(=O)O (stereo partly drawn)	30.4
Cc1nc(CN2CC(OCc3ccncc3)CN(Cc3ccc4c(c3)OCCO4)CC2=O)cs1 (stereo not drawn)	-39.6
COCC(=O)NCc1cc(=O)n2c(n1)CN(c1ncccn1)CCC2	3.0
Cc1ccc(C2CCCN2C(=O)CC2CCN(C(=O)C(C)C)CC2)cc1C (stereo not drawn)	-6.7
O=C(Cn1cc(C(=O)NCC2(c3ccccc3)CCCC2)ccc1=O)Nc1nccs1	0.0
Cc1cc2cc3c(C)cc(=O)oc3c(C)c2o1	14.4&27.6
Cc1ccc(CSC2=Nc3ccccc3C3=NC(CCC(=O)NCc4ccco4)C(=O)N23)cc1 (stereo not drawn)	9.9
CCCCCCC(=O)N(O)C1CC(=O)N(Cc2ccccc2)C1=O (stereo not drawn)	-11.0
CCC(C(=O)Nc1cnn(CC(=O)NC2CCCC2)c1)N1CCCCC1 (stereo not drawn)	-12.3
Cc1ccsc1-c1nc(COc2cccc(N3CCOCC3)c2)c(C)o1	4.6
CC(=O)N1C[C@@H]2CN(C(=O)C(C)C)c3ccccc3[C@H]2C1	112.0
COc1ccccc1CC(C)NC(=O)c1ccnn1C(C)C (stereo not drawn)	-9.9
CO[C@H]1CO[C@@]2(CCCN(C(=O)c3cccc(C)n3)C2)C1	1.6
O=C(NC[C@H]1[C@@H](c2ccccc2)[C@H](CO)N1Cc1cccnc1)c1ccccn1	17.4
CC(C)CC(NCc1ccccc1O)C(=O)O (stereo not drawn)	-36.7
Cn1ccnc1CN1CCCC2(CCCN2S(C)(=O)=O)C1 (stereo not drawn)	-27.3
Cc1c(C)c2c(c(C)c1O)CCC(C)(C(=O)N1CCc3c(nc[nH]c3=O)C1)O2 (stereo not drawn)	-17.1
COCCN1CC2CC(C(=O)NCC3CC3)C(C1)O2 (stereo not drawn)	-19.4
CN(Cc1ccco1)CC1CN(S(C)(=O)=O)Cc2nccn2C1 (stereo not drawn)	9.1
COc1ccc(-c2ccc3nc(CO)[nH]c3c2)cc1Cl	-40.4
CCc1ccc(-c2nccn2CCn2ccnc2)o1	8.3
COCCn1c2c(ccc1=O)CC(NCc1ccc(OC)cc1)CC2 (stereo not drawn)	-48.6
COc1ccc2c3c(n(C)c2c1)[C@@H](CO)N(Cc1cccnc1)CC31CCN(C(=O)NC(C)C)CC1	i
CCN(CC)C(=O)C(=O)Nc1cc(C(=O)N(CC)CC)ccc1Cl	185.6
COc1ccc(CN2CCCC(c3nnc(SC)n3C)C2)cc1 (stereo not drawn)	2.0
COCCN1CCCC2(CCN(C(=O)C3CC=CC3)CC2)C1=O	95.9
COCC#Cc1ccc([C@H]2[C@@H](CO)N3CCCCN(C(=O)NC4CCCC4)C[C@H]23)cc1	-5.9
O=C(Cn1ncc2c(N3CCN(c4ccccn4)CC3)ncnc21)NC1CCCCCC1	-52.3
Cc1ncsc1C(=O)N(C)Cc1nc(C)c2c(n1)N(CCc1ccccc1)C(=O)CC2	-5.5
C=CCOc1ccc(C(=O)N2CCn3nc(C)nc3C2)cc1	-13.3
CCOc1ccccc1CNc1nc(-c2nnc(-c3cccc(C)c3)o2)nc2ccccc12	-47.4
COCCc1noc(C2CCCN(C(=O)c3cnn4c3CCCC4)C2)n1 (stereo not drawn)	68.5
Cc1ccc(N(Cc2nc(-c3cccc(Cl)c3)oc2C)S(=O)(=O)c2cccs2)cc1	-47.7
COc1ccccc1-c1ccc([C@@H]2[C@H](C#N)N[C@H]2CO)cc1	3.1
Cc1cnc(C(=O)N2CCC(N3CCOCC3)CC2C(=O)O)cn1 (stereo not drawn)	93.5
Cc1nc(CC(=O)N2CCCC2c2ccc3c(NCc4ccccc4)n[nH]c3n2)cs1 (stereo not drawn)	-76.2*
Cc1ccc(CC(=O)N2CCC3C2CC(=O)N3c2cccnc2)cc1 (stereo not drawn)	-63.3
Oc1cc(-c2csc3ccccc23)cc2c1OCCN(Cc1cscn1)C2	-8.7
CN(C)C(=O)CN1CCc2ccc(=O)n(Cc3cccnc3)c2CC1	19.3
Cc1cc(C(=O)Oc2cc(C)c(Cl)c(C)c2)no1	-49.8
O=C1CCc2cc(S(=O)(=O)Nc3cccc4c3CCCC4)cc3c2N1CC3	-113.7*
Cc1nc(CN2CCC3(CC2)NC(=O)CC3c2ccccc2)cs1 (stereo not drawn)	5.8
CCCn1c(=O)c(-c2nc(-c3ccc(OC)cc3)no2)c(O)c2ccccc21	-8.9
CC(C)(C)C(=O)N1CCCC1C(=O)O (stereo not drawn)	19.1
COc1cnc(-n2cnc(C)n2)c2[nH]cc(C(=O)C(=O)N3CCN(C(=O)c4ccccc4)CC3)c12	24.1
CO[C@@H]1CC[C@H]2CCOc3ccc(C#N)cc3C(=O)N(C)[C@H](C)C(=O)N(C)C[C@H]1O2	-30.5
The listing continues:
SMILES	Tg IFNy HTS
C[C@@H]1CN([C@H](C)CO)C(=O)c2cc(C3=CCCC3)cnc2O[C@H]1CN(C)C(=O)Nc1ccc(C(F)(F)F)cc1	-56.7
CNCCOc1ccc(C)cc1-c1cc(N)nc2[nH]ccc12	20.6
CN1CCN(C)C2(CCN(C(=O)c3cccc4c3NCCC4)CC2)C1	-2.1
CO[C@H]1CN(C)C(=O)c2cccc(C#N)c2OCC[C@H]2CC[C@@H](OC)[C@H](CN(C)C(=O)[C@@H]1C)O2	-15.9
CN1C(=O)c2cc(NC(=O)c3cnccn3)ccc2OC[C@H]2O[C@H](CC(=O)NCC3CCCCC3)CC[C@@H]21	9.9
CC(C)Cc1cc(C(=O)N2CCc3c(ncnc3N3CCOCC3)C2)on1	1.0
CCS(=O)(=O)N1CCC[C@]2(C(=O)NCC3CC3)CN(Cc3cnn(C)c3)C[C@H]2C1	-21.5
O=C(Nc1ccccc1)N1CC[C@H]2CNS(=O)(=O)[C@@H]2CC1	-1.2
Cc1c(C(=O)NCc2snnc2C(C)C)cnn1-c1ccccn1	-25.7
C[C@@H]1CN([C@@H](C)CO)C(=O)c2cc(NS(=O)(=O)c3cn(C)cn3)ccc2O[C@@H]1CN(C)C(=O)Nc1cccc2ccccc12	16.1
COC(=O)c1c(NCc2cccs2)c2cccc(Cl)c2[nH]c1=O	11.7
O=C(Nc1ccc(N2CCOCC2)c(F)c1)c1ccnc(N2CCOCC2)c1	12.2
COc1ccc(S(=O)(=O)Nc2ccc3c(c2)CC(=O)N([C@H](C)CO)C[C@@H](C)[C@@H](CN(C)Cc2ccc(C(=O)Nc4ccccc4N)cc2)O3)cc1	-10.7
CS(=O)(=O)N1CCCn2nnc(COCC3CC3)c2C1	1.0
Clc1cccc(C=NC=Nc2cccc(Cl)c2)c1	16.4
CCN(CC)c1ncnc2c1cnn2CC(=O)Nc1ccc(C)cc1C	224.7
COc1ccc2c(c1)C(=O)CC(c1ccccc1F)O2 (stereo not drawn)	46.3
Cc1onc(-c2ccc(Cl)cc2)c1-c1ccnc(SCC(=O)c2ccccc2)n1	-72.4*
Cc1cccc2nc(C(=O)Nc3cnc4n3CCCC4)c(F)n12	9.0
O=C([C@H]1CCCO1)N1CCC2(CC1)CN(CCO)c1ccccc12	-35.8
CN(Cc1ncc[nH]1)c1nccc(N2CCC(O)C2)n1 (stereo not drawn)	-1.5
Cc1ccc(-c2nc(Cn3nnc(C(=O)NCc4ccc(C(C)C)cc4)c3C)c(C)o2)cc1	-8.7
CN1CC(=O)N(c2cccc(F)c2)CC12CCN(S(=O)(=O)C1CC1)C2 (stereo not drawn)	6.0
C=CCN(C(=O)c1ccc2c(c1)no[n+]2[O-])C(C)C	-2.9
CCOc1ccc(-c2nc(CN(c3ccccc3OC)S(=O)(=O)c3cccs3)c(C)o2)cc1	26.0
COc1cccc(C(NC(=O)COc2ccccn2)c2ccccc2)c1 (stereo not drawn)	31.2
C[C@@H]1CCCCO[C@@H](CN(C)Cc2ccc(C(=O)O)cc2)[C@@H](C)CN([C@H](C)CO)C(=O)c2cc(N(C)C)ccc2O1	-3.1
CN1CCCC1CCn1nc(C2CCNCC2)n(-c2ccccc2)c1=O (stereo not drawn)	4.0
COCC1COCCC12CCN(C(=O)c1ccn(C)n1)CC2 (stereo not drawn)	0.7
CN(C)c1nc(N2CCOCC2)nc2c1CN(Cc1cccs1)CC2	-27.1
C=CCN1C(=O)CCCC12CCCN(C(=O)Nc1cccc(C)c1)C2 (stereo not drawn)	12.2
O=C(O)c1ccc(CSCc2ccccc2)o1	-2.3
c1ccc(OCC2CCN(Cc3cc4ccccc4o3)CC2)nc1	-4.2
CCc1ccccc1NC(=O)CN1CCC2(CC1)N=C(c1ccc(C)c(C)c1)C(=O)N2	-4.9
CC(=O)OCC(=O)[C@@]1(O)CCC2C3C[C@H](C)C4=CC(=O)C=CC4(C)C3[C@@H](O)CC21C (stereo partly drawn)	-7.6
C[C@@H]1CCCCO[C@H](CN(C)C(=O)Nc2ccc3c(c2)OCO3)[C@H](C)CN([C@H](C)CO)C(=O)c2cc(NS(=O)(=O)c3ccc(F)cc3)ccc2O1	35.9
COc1ccc(CC(=O)NCCc2sc(-c3cccc(F)c3)nc2C)cc1OC	9.3
NC(=O)c1[nH]c(C2CCCN(C(=O)COc3ccccc3)C2)nc1-c1ccccc1 (stereo not drawn)	-22.7
O=C(Nc1cccc(-c2cc3ccccc3oc2=O)c1)c1ccc(Br)o1	22.6
c1cncc(NCCNC2CCSC2)c1 (stereo not drawn)	-39.9
COCC(=O)N1CCCN(Cc2ccc(C(=O)Nc3cnn(C)c3)cc2)CC1	0.4
Cc1nn(Cc2nc(-c3ccc(NC(=O)c4ccc(F)cc4)cc3)oc2C)c(C)c1C	111.5
COc1cccc(NC(=O)c2ncn3c(C4CCN(CC5CC5)CC4)ccnc23)c1	-3.8
Cc1ccccc1N1CC2(CCCCN2CC2CC2)CC1=O (stereo not drawn)	-8.5
Cc1cccc(N2CCN(S(=O)(=O)c3ccc4[nH]c(=O)ccc4c3)CC2C)c1 (stereo not drawn)	35.7

Given as a markdown table: part of the list above
| structure | Tg IFNy HTS |
| --- | --- |
| Cc1nc(CN2CCC3(CC2)NC(=O)CC3c2ccccc2)cs1 (stereo not drawn) | 5.8 |
| Cc1cccc2nc(C(=O)Nc3cnc4n3CCCC4)c(F)n12 | 9.0 |

Other results follow.
SMILES	Tg IFNy HTS
CN(C)C(=O)N1CCC(c2cc3c(ncn3C)c(NCc3ccccc3)n2)CC1	4.6
CC(C)CN(C/C=C/c1ccccc1)C(=O)CC1CCOCC1	-3.2
COc1ccc(NC(=O)c2cc3c(s2)CCN3C(=O)C2CC2)cc1	23.2
Cc1c(Cl)cc(C(=O)N2CCCC(N(C)CCN(C)C)C2)cc1Cl (stereo not drawn)	-15.6
CN1CCC(CN2CCC(CNC(=O)C3CCCCC3)C2)CC1 (stereo not drawn)	1.8
COc1ccc(-c2nnc(-c3nc(NCc4ccccc4Cl)c4ccccc4n3)o2)cc1	161.0
Cc1ccc(Nc2nc(C(=O)NCCCc3ccccc3)nc3ccccc23)cc1	-21.1
CCNc1ncc(CN2C[C@H](N)C[C@H]2C(=O)NC)cn1	-27.0
OCc1ccc(-c2nccn2-c2cccc3c2CCC3)o1	-2.7
CCOC(=O)c1cc(-c2ccccc2)n(CCNC(=O)OC(C)(C)C)c1C	-9.5

Some of the compounds tested; the hit share may differ from the screen's.
